# Screens deposited in PubChem by Broad Institute.
# DUX4 inh: blocks DUX4-driven transcriptional activation. activity change, negative = inhibition, % (concentration not given with the values). 293T-iDUX4 ZSCAN4-Gaussia luciferase reporter, 24 h; stronger effect = lower value. 0.8% of 37,000 active;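 active means -10% or lower and over 25 points stronger than a control reporter; inconclusive means -10% or lower with a smaller gap; inactive means above -10%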;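 further: 0% = median of neutral control wells and -100% = median of positive control wells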
# DUX4 inh difference: recorded beside DUX4 inh, whose call it bears; Gaussia minus Italica difference, %; measured here: selective DUX4 reporter inhibition;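 worked out from the two reporters; negative = selective loss of the DUX4 reporter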
# DUX4 inh control: further read-out of DUX4 inh, marked with its call; activity change, negative = inhibition, %; measured here: Italica tet-on control reporter;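 0 = neutral control and -100 = positive control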
# * hit, by the source's call; ? = inconclusive; . = no result given.
# Value order – DUX4 inh, DUX4 inh difference, DUX4 inh control
- CN1C[C@@H](O)COC[C@H]2O[C@H](CC(=O)NC3CCCC3)CC[C@@H]21
→ 2, 3, -1.4
- C[C@H]1CN([C@@H](C)CO)C(=O)c2cccc(NC(=O)C3CCOCC3)c2O[C@H]1CN(C)C(=O)Nc1ccc2c(c1)OCO2
→ 0, 1, -0.4
- CO[C@H]1CN(C)C(=O)c2cc(C#N)ccc2OC[C@@H]2O[C@@H](CC[C@H]2OC)CCN(C)C(=O)[C@H]1C
→ -6, -4, -2.4
- O=C(NCC1CC1)[C@H]1[C@H](CO)[C@H]2Cn3c(ccc(-c4ccccc4)c3=O)[C@H]2N1Cc1cocn1
→ -2, 3, -4.1
- COc1ccc(-c2ccccc2[C@H]2[C@@H](CO)N(C(=O)NC(C)C)[C@H]2C#N)cc1
→ -5, 1, -5.7
- COc1ccc(-c2ccc3c(c2)[C@@H]2[C@@H](CCN2C(=O)c2ccncc2)[C@@H](CO)N3C)cc1
→ -8, -3, -4.4
- CC(C)NC(=O)N(C)C[C@@H]1Oc2c(NS(=O)(=O)c3cccs3)cccc2C(=O)N([C@@H](C)CO)C[C@H]1C
→ 0, -2, 2.0
- C[C@@H]1CN([C@H](C)CO)C(=O)c2cc(C3=CCCC3)cnc2O[C@H]1CN(C)C(=O)c1ccc2c(c1)OCO2
→ 2, -1, 3.0
- COCC(=O)Nc1ccc2c(c1)C(=O)N(C)[C@@H]1CC[C@H](CC(=O)O)O[C@H]1CO2
→ 3, -3, 6.0
- CC=Cc1ccc2n(c1=O)C[C@@H]1[C@@H](CO)[C@H](C(=O)NCc3ccccn3)N(CC3CC3)[C@H]21 (mixture of isomers)
→ 4, 1, 2.5
- O=C(C[C@@H]1C[C@H]2c3cc(NS(=O)(=O)c4ccccc4)ccc3O[C@H]2[C@@H](CO)O1)N1CCOCC1
→ -1, -4, 3.5
- O=C(NCc1ccc(F)cc1)[C@@H]1[C@@H](CO)[C@@H]2Cn3c(cccc3=O)[C@@H]2N1C(=O)C1CC1
→ 7, 5, 1.2
- Cc1ccc(S(=O)(=O)N[C@@H]2CC[C@@H](CCNC(=O)C3CCOCC3)O[C@H]2CO)cc1
→ 1, 0, 1.2
- CN(C)C(=O)[C@@H]1[C@@H](CO)[C@@H]2Cn3c(ccc(-c4cccc(F)c4)c3=O)[C@@H]2N1C(=O)c1cnccn1
→ 7, 4, 3.8
- O=C(Cc1ccccn1)NCC[C@@H]1CC[C@@H](NC(=O)Nc2ccc(C(F)(F)F)cc2)[C@@H](CO)O1
→ ?, ., .
- CCCNC(=O)C[C@@H]1CC[C@H]2[C@@H](COc3ccc(NS(=O)(=O)c4ccccc4C)cc3C(=O)N2C)O1
→ -1, -4, 2.7
- CCCNC(=O)[C@H]1[C@H](CO)[C@H]2Cn3c(ccc(-c4ccccc4OC)c3=O)[C@H]2N1CC
→ 2, -4, 5.9
- O=C(c1ccc(F)cc1)N1CC(=O)N2[C@H](C1)[C@@H](c1ccc(-c3cccnc3)cc1)[C@@H]2CO
→ -4, -1, -2.9
- CN(C)CC#Cc1ccc([C@@H]2[C@H](CO)N3C(=O)CN(C(=O)c4cccnc4)C[C@@H]23)cc1
→ 20, 10, 10
- O=C(O)[C@@H]1[C@@H](CO)[C@@H]2Cn3c(ccc(-c4ccc(F)cc4)c3=O)[C@@H]2N1CCc1ccccc1
→ 1, -3, 3.3
- O=C(C[C@@H]1C[C@H]2c3cc(NC(=O)Nc4ccccc4F)ccc3O[C@H]2[C@@H](CO)O1)NCCc1ccccc1
→ -22*, -27*, 5.4*
- Cc1ccccc1S(=O)(=O)N1CC(=O)N2[C@H](CO)[C@H](c3ccc(C#CCN(C)C)cc3)[C@@H]2C1
→ 11, 0, 11
- COc1ccc(NC(=O)N(C)C[C@H]2OCCCC[C@@H](C)Oc3ccc(NS(=O)(=O)c4cccs4)cc3C(=O)N([C@@H](C)CO)C[C@H]2C)cc1
→ -1, -2, 0.7
- COc1cc(CN2CC3(CN(S(=O)(=O)c4cccc(F)c4)C3)c3c([nH]c4cc(OC)ccc34)[C@@H]2CO)cc(OC)c1
→ ?, ., .
- COc1ccc(CN(C)C[C@@H]2OCCCC[C@H](C)Oc3ccc(NC(=O)C4CCCCC4)cc3C(=O)N([C@H](C)CO)C[C@@H]2C)cc1
→ 1, 3, -1.4
- O=C(C[C@@H]1CC[C@@H]2[C@H](COC[C@H](O)CN2Cc2cc(F)cc(F)c2)O1)NC1CCCC1
→ 1, -2, 3.2
- C[C@H](CO)N1C[C@H](C)[C@H](CN(C)C)Oc2cc(C#Cc3ccccc3)ccc2S1(=O)=O
→ 0, -3, 3.8
- Cc1noc(C)c1S(=O)(=O)N(C)C[C@@H]1OCc2ccccc2-c2c(n(C)c3ccccc23)C(=O)N([C@H](C)CO)C[C@@H]1C
→ ?, ., .
- COCC(=O)N(C)C[C@H]1Oc2ncc(-c3ccc(F)cc3)cc2C(=O)N([C@H](C)CO)C[C@@H]1C
→ -4, 1, -4.3
- O=C(C1CCOCC1)N1CC(=O)N2[C@H](C1)[C@@H](c1ccc(C#Cc3cccc(F)c3)cc1)[C@@H]2CO
→ ?, ., .
- COc1ccc(-c2ccc3c(c2)[C@@H]2[C@@H](CCN2C(=O)c2cnccn2)[C@@H](CO)N3)cc1
→ -2, -3, 1.8
- COc1ccc(C#Cc2ccc3c(c2)[C@@H]2[C@@H](CCN2S(=O)(=O)c2ccccc2C)[C@@H](CO)N3C)cc1
→ 2, 7, -4.9
- O=C(C[C@@H]1C[C@@H]2c3cc(NS(=O)(=O)c4ccc(F)cc4)ccc3O[C@@H]2[C@H](CO)O1)NCc1ccc(Oc2ccccc2)cc1
→ ?, ., .
- COc1cccc(CN2[C@@H](CO)[C@@H](c3ccccc3)C23CN(C(=O)C2CC2)C3)c1
→ -2, -18, 17
- CC=Cc1ccc2n(c1=O)C[C@@H]1[C@@H](CO)[C@H](C(=O)N3CCCCC3)[C@H]2N1C(=O)C1CC1 (mixture of isomers)
→ 6, -1, 7.2
- CNC[C@@H]1Oc2ccc(NS(=O)(=O)c3ccc(Cl)cc3)cc2CC(=O)N([C@@H](C)CO)C[C@@H]1C
→ -2, -7, 4.3
- Cc1ccc(S(=O)(=O)NCC[C@H]2CC[C@H](NS(=O)(=O)c3ccccc3Cl)[C@H](CO)O2)cc1
→ 2, 2, 0.4
- CN(C)C(=O)[C@@H]1[C@@H](CO)[C@@H]2Cn3c(cccc3=O)[C@@H]2N1CC1CCCCC1
→ -9, -20, 11
- COc1ccc2c3c([nH]c2c1)[C@@H](CO)N(C(=O)CN(C)C)CC31CCN(Cc2ccncc2)CC1
→ 9, 1, 8.2
- COc1ccc2c3c([nH]c2c1)[C@H](CO)N(Cc1ccc(Cl)cc1)CC31CCN(Cc2nccs2)CC1
→ ?, ., .
- COc1cccc(-c2ccc([C@H]3[C@H](CO)N4CCCCN(S(=O)(=O)c5cn(C)cn5)C[C@@H]34)cc2)c1
→ 11, -3, 14
- Cc1ccccc1S(=O)(=O)N1CCCCN2[C@H](CO)[C@H](c3ccc(C#CCN(C)C)cc3)[C@H]2C1
→ -5, -10, 5.5
- COc1ccc2c3c([nH]c2c1)[C@H](CO)N(CC1CC1)CC31CCN(C(=O)c2ccc(F)cc2)CC1
→ ?, ., .
- COc1ccc2c3c(n(C)c2c1)[C@H](CO)N(C(=O)c1ccc(F)cc1)CC31CCN(C(C)=O)CC1
→ 11, 11, 0.7
- CCCC(=O)Nc1ccc2c(c1)C(=O)N(C)C[C@@H](OC)[C@@H](C)CN(C(=O)c1ccccn1)[C@H](C)CO2
→ 4, 1, 2.8
- CCN1[C@H](C(=O)NCC2CC2)[C@@H](CO)[C@@H]2Cn3c(ccc(-c4ccccc4)c3=O)[C@@H]21
→ -2, 1, -2.9
- COc1ccc2c3c(n(C)c2c1)[C@H](CO)N(C(=O)Nc1ccc(F)cc1)CC31CN(C(=O)NC(C)C)C1
→ 7, -15, 23
- OC[C@H]1[C@@H](c2ccc(-c3ccccc3F)cc2)[C@H]2CN(Cc3ccncc3)CCCCN21
→ ?, ., .
- Cn1cnc(S(=O)(=O)N2CCCCN3[C@H](CO)[C@@H](c4ccc(-c5cccc(F)c5)cc4)[C@@H]3C2)c1
→ 3, 5, -1.5
- COc1cccc(C(=O)N2C[C@@H]3[C@H](c4ccccc42)[C@@H](CO)N3C(=O)c2cccc(F)c2)c1
→ 3, 2, 1.5
- COc1cccc(S(=O)(=O)Nc2ccc3c(c2)C(=O)N(C)[C@H]2CC[C@H](CC(=O)NCC4CCCCC4)O[C@H]2CO3)c1
→ -2, -4, 1.9
- CCCC#Cc1ccc([C@@H]2[C@H]3CN(C(=O)NC4CCCC4)CC(=O)N3[C@H]2CO)cc1
→ 0, 1, -1.7
- CCCC(=O)Nc1ccc2c(c1)OC[C@H](C)N(CC1CCOCC1)C[C@H](C)[C@H](OC)CN(C)C2=O
→ -7, -11, 3.7
- CC(=O)N1CC2(C1)[C@@H](c1ccccc1)[C@@H](CO)N2CC1CCOCC1
→ 0, 2, -1.9
- CO[C@H](CN(C)S(=O)(=O)c1ccc(C)cc1)[C@@H](C)CN(Cc1ccccc1Cl)[C@H](C)CO
→ 1, -1, 1.5
- C[C@@H]1CCCCO[C@@H](CN(C)CC2CC2)[C@@H](C)CN([C@H](C)CO)C(=O)c2cc(NC(=O)c3ccccc3)ccc2O1
→ 0, 0, -0.1
- O=C(CN1CCOCC1)N1CC(=O)N2[C@H](CO)[C@@H](c3ccc(/C=C/c4ccccc4)cc3)[C@H]2C1
→ 8, 7, 1.8
- CCCNC(=O)Nc1ccc2c(c1)OC[C@@H](C)N(CC1CCCC1)C[C@H](C)[C@@H](OC)CN(C)C2=O
→ -4, -6, 1.7
- CCCN(C)C[C@H]1Oc2cc(Br)ccc2S(=O)(=O)N([C@@H](C)CO)C[C@H]1C
→ 0, 1, -1.2
- CN1c2ccc(-c3ccc(F)cc3)cc2[C@H]2[C@H](CCN2C(=O)c2cccnc2)[C@@H]1CO
→ -8, 17, -26

# 3 compounds drawn at random from the list so far:
# Value order – DUX4 inh, DUX4 inh difference, DUX4 inh control
- COCC(=O)Nc1ccc2c(c1)C(=O)N(C)[C@@H]1CC[C@H](CC(=O)O)O[C@H]1CO2
→ 3, -3, 6.0
- Cc1ccccc1S(=O)(=O)N1CC(=O)N2[C@H](CO)[C@H](c3ccc(C#CCN(C)C)cc3)[C@@H]2C1
→ 11, 0, 11
- COc1ccc2c3c([nH]c2c1)[C@H](CO)N(CC1CC1)CC31CCN(C(=O)c2ccc(F)cc2)CC1
→ ?, ., .

# (cont.)
# Value order – DUX4 inh, DUX4 inh difference, DUX4 inh control
- O=C(C[C@H]1CC[C@@H]2[C@H](COC[C@H](O)CN2C(=O)Cc2ccccc2)O1)NC1Cc2ccccc2C1
→ -5, 1, -6.8
- CCCN1[C@H](C(=O)NCCc2cn(C)cn2)[C@@H](CO)[C@@H]2Cn3c(ccc(-c4ccccc4)c3=O)[C@@H]21
→ -4, -2, -1.1
- CCC(=O)N1[C@@H]2Cn3c(ccc(-c4ccncc4)c3=O)[C@H]1[C@@H](C(=O)N1CCc3ccccc3C1)[C@@H]2CO
→ -4, 2, -6.4
- COc1ccc(CNC(=O)C[C@H]2C=C[C@H](NC(=O)c3cccc(F)c3)[C@H](CO)O2)cc1
→ 2, 0, 1.6
- CO[C@H]1CN(C)C(=O)c2ccc(NC(=O)Nc3ccc4c(c3)OCO4)cc2OC[C@@H](C)NC[C@H]1C
→ -6, -12, 5.8
- O=C(c1ccccc1)N1CC[C@@H]2[C@@H](CO)Nc3ccc(C#Cc4cccc(F)c4)cc3[C@@H]21
→ -43*, -37*, -6.7*
- CN(C)C(=O)c1ccc(-c2ccc3c(c2)[C@H]2[C@H](CCN2Cc2ccc4c(c2)OCO4)[C@@H](CO)N3)cc1
→ 5, 5, -0.6
- C[C@H](CO)N1C[C@H](C)[C@H](CN(C)Cc2cccnc2)Oc2cc(C#CC3CCCCC3)ccc2S1(=O)=O
→ -4, -4, -0.1
- CN(C)C(=O)C[C@H]1C[C@@H]2c3cc(NS(C)(=O)=O)ccc3O[C@@H]2[C@@H](CO)O1
→ 4, 5, -1.2
- C[C@H](CO)N1C[C@H](C)[C@H](CN(C)Cc2ccncc2)Oc2ccc(NS(=O)(=O)c3ccc(F)cc3)cc2CC1=O
→ -1, -3, 2.2
- C[C@@H]1CN([C@H](C)CO)C(=O)c2cc(NC(=O)c3ccncc3)ccc2O[C@@H]1CN(C)S(=O)(=O)c1ccc(Cl)cc1
→ -6, -7, 1.2
- C[C@@H]1CN([C@@H](C)CO)S(=O)(=O)c2ccc(C3=CCCCC3)cc2O[C@@H]1CN(C)Cc1ccccc1F
→ ?, ., .
- O=C(C[C@H]1CC[C@H]2[C@@H](COC[C@H](O)CN2Cc2ccc3c(c2)OCO3)O1)N1CCCCC1
→ 4, 6, -1.8
- CC(=O)N1[C@@H]2c3ccc(-c4ccccc4)c(=O)n3C[C@H]1[C@H](CO)[C@H]2C(=O)NCC1CC1
→ 5, 4, 1.4
- OC[C@H]1[C@@H](c2ccc(/C=C/c3ccccc3)cc2)[C@H]2CN(Cc3ccncc3)CCCCN21
→ ?, ., .
- O=C(Cc1cccnc1)N1CC(=O)N2[C@H](CO)[C@H](c3ccc(/C=C/c4ccccc4)cc3)[C@@H]2C1
→ 0, -3, 2.8
- CS(=O)(=O)Nc1ccc2c(c1)[C@@H]1C[C@@H](CC(=O)NCc3cc(F)ccc3F)O[C@@H](CO)[C@@H]1O2
→ 7, 6, 0.3
- O=C(Cc1cccnc1)N1[C@@H](CO)[C@@H](c2ccccc2)[C@@H]1CNCC1CCC1
→ -5, -5, -0.4
- CCCN1[C@@H]2Cn3c(ccc(-c4ccccc4)c3=O)[C@H]1[C@@H](C(=O)NCC)[C@@H]2CO
→ 2, -5, 6.5
- CCNC(=O)[C@H]1[C@H](CO)[C@H]2Cn3c(ccc(C4=CCCC4)c3=O)[C@@H]1N2S(=O)(=O)c1cn(C)cn1
→ 2, 0, 2.1

# A portion of the library, so the mix of outcomes need not match the whole.
